PKD1 inh: inhibitors of human PKD1 kinase; inhibition, %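 (about 10 µM by stock and volumes)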; 200,000 compounds, 0.056% hits; Q15139; AID 797; PKD1 kinase fluorescence polarization assay;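 active means inhibition of 50% or more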;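 further: controls were vehicle for no effect and a reference inhibitor for full effect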
RGS16-Gao HTS: RGS16-Galphao interaction regulator (human); AID 1441; 220,000 compounds, 0.38% hits; bead-based flow cytometry RGS16-Galphao binding, fluorescence; actives lie on both sides; O15492+P09471; binding response (% of control), % at 10 µM;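 active means below 25% or above 175%, edge rows of some plates excepted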;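 further: Galphao activated by GDP with aluminum fluoride before binding; 100% = wells without compound and 0% = beads without RGS; some results beyond the cut were filed as inactive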
Target sequence (O15492 whole entry, looked up): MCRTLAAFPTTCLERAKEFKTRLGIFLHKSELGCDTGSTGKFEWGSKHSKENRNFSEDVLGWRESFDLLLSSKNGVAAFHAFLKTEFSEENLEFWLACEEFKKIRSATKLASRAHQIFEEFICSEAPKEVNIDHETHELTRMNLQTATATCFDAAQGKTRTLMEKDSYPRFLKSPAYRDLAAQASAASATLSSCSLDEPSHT
Target sequence (P09471 whole entry, looked up): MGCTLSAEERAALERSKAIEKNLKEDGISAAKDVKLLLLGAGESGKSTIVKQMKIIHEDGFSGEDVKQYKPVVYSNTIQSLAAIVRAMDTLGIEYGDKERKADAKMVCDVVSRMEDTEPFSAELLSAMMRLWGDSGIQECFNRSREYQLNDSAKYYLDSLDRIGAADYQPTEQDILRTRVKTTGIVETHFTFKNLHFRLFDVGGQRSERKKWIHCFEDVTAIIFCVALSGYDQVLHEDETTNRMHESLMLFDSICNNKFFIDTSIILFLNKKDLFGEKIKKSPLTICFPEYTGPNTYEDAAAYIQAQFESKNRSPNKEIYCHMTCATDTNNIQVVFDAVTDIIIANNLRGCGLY
GALR2 agonist: agonists of human galanin receptor 2 (GALR2); O43603; GALR2-expressing cells, agonist activation read-out; activation, %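 (tested at 5 µM)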; 140,000 compounds, 0.48% hits;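 active means above mean plus 3 SD of all compounds, about 5% in these data, not always enough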;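 further: 0% = vehicle buffer wells and 100% = reference agonist at full effect; tested in CHO reporter cells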
Target sequence (O43603 whole entry, looked up): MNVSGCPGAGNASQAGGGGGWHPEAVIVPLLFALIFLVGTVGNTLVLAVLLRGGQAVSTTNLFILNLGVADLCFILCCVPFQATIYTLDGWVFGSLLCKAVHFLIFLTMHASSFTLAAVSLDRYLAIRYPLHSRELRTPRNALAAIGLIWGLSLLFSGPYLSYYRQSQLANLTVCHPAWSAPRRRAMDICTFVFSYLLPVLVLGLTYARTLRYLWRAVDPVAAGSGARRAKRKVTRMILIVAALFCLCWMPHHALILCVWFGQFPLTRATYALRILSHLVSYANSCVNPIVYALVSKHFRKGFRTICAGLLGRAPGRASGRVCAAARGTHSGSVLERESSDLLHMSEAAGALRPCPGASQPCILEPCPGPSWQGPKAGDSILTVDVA
HSV replic up: HSV replication enhancement | AID 1956 | 220,000 compounds, 0.005% hits | HSV replication augmentation in cells, fold increase | maximum fold increase;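 active means peak rise of 1.5-fold or more in the series; tested in PC3 cells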;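 further: first round at 10 µM; read as green reporter fluorescence; hits show the peak of a series up to 25 µM; 1 = signal of infected wells without compound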
Insulin prom inh: TRM-6 insulin promoter activity inhibition | 130,000 compounds, 0.9% hits | AID 1273 | inhibition, % at 2 µM | TRM-6 cells (human fetal islet line), insulin promoter-eGFP reporter, imaging; reporter expression induced with tamoxifen;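 active means inhibition above the mean plus 3 SD, with well images judged a real hit on visual review, cut at about 60% in these data, passing the limit was not always enough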
Insulin prom inh cell count: recorded beside Insulin prom inh, whose call it bears; normalized cell count, %; measured here: cell count, toxicity; reference of the scale not given here;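 cells exposed to compound for 48 h; stained nuclei by imaging scaled within each plate; lower means fewer cells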
HSV replic up primary fold: also measured in HSV replic up; calls as there; fold increase; compound at 10 µM; measured here: primary screen fold increase 10 uM; tested in PC3 cells;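 GFP signal in the first replicate; 1 = infected wells without compound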
* = called active by the depositor; i = inactive; / = not tested or not shown. Not a hit list; 1.3% or so of the library scored in one or more.

SMILES	PKD1 inh	RGS16-Gao HTS	GALR2 agonist	HSV replic up	HSV replic up primary fold	Insulin prom inh	Insulin prom inh cell count
Cc1ccsc1C(=O)NNC(=O)Nc1ccc(Cl)c(Cl)c1	11	99	-3.4	i	0.96	-27	100
CN(C)CCOC(=O)NC12CC3CC(CC(C3)C1)C2	/	101	/	i	1.1	/	/
Cc1cc(NC(=O)Cn2cc(C(F)(F)F)cc(Cl)c2=O)no1	-9	105	-1.4	i	0.98	/	/
O=C(COc1ccc(S(=O)(=O)N2CCCCC2)cc1)NCc1ccccn1	-3	93	/	i	1.1	/	/
COc1ccc(OC)c(C2=Nn3c(nnc3-c3cc(C)[nH]n3)SC2)c1	/	107	/	i	0.94	/	/
Cc1ccc(C)c(C(=O)CN2C(=O)NC3(CCC(C)CC3)C2=O)c1 (stereo not given)	-5	100	-1.5	i	1.1	/	/
Cc1ccc(C(=O)NNC(=O)CCn2nnc3ccccc32)cc1	-9	108	/	i	0.88	/	/
COC(=O)C1=CN(C)C=C(C(=O)OC)C1c1ccccc1Cl	0	99	16*	i	1	20	130
CC1(C)CC(=O)C(C=Nc2cccnc2/N=C/C2=C(O)CC(C)(C)CC2=O)=C(O)C1	-4	103	/	i	1.2	/	/
CCSc1nnc(NC(=O)c2cccc(OCc3c(C)noc3C)c2)s1	-8	108	0.2	i	0.76	-7	47
CCCNC(=S)N1CCCC(c2nc3ccccc3[nH]2)C1 (stereo not given)	2	101	/	i	0.99	0	117
COC(=O)N/N=C(\C)c1ccc(OC(F)F)cc1	-1	100	/	i	1	/	/
Cc1cc(S(=O)(=O)Nc2cccnc2)c(C)s1	-1	102	-0.2	i	0.86	-7	77
CC(C)(C)c1[nH]nc2c1C(c1ccccc1OC(=O)N1CCOCC1)C(C#N)=C(N)O2 (stereo not given)	15	76	-2.2	i	1.1	29	116
Cc1c(NC(=S)NC(=O)c2ccco2)cccc1-c1nc2ncccc2o1	3	96	/	i	0.96	/	/
Cc1nn(C)c(C)c1S(=O)(=O)N1CCCC(C(=O)NC2CCCCCC2)C1 (stereo not given)	-5	98	-1.7	i	1.1	/	/
COc1cc(/C=N/NC(=O)c2ccc(C)nc2)cc([N+](=O)[O-])c1O	-4	105	/	i	1	/	/
COc1ccc(CCN2C(=O)c3cccc4c(C(=O)N5CCCCC5)ccc(c34)C2=O)cc1OC	-8	107	0.9	i	0.78	/	/
CCCC(C)NC(=O)c1ccc(C2SCC(=O)N2Cc2ccco2)cc1 (stereo not given)	-2	102	-1.9	i	1	32	107
CC1CCN(C(=O)/C(=C\c2cccs2)NC(=O)c2ccccc2)CC1	-10	104	/	i	0.86	33	110
N=C1/C(=C/c2cccn2CCOc2ccccc2)C(=O)N=C2SC=C(c3ccccc3)N12	-4	112	-0.8	i	0.7	-11	132
Cc1cc(C)c(C(=O)CN2C(=O)NC3(CCCCC3)C2=O)cc1C	-1	97	/	i	0.99	/	/
CC(C(=O)N1CCCCC1)N(C)CC(=O)Nc1ccc(Cl)cc1 (stereo not given)	-8	97	/	i	0.99	/	/
COc1ccccc1-n1c(SCC(=O)O)nc2sc3c(c2c1=O)CCC3	/	107	/	i	0.96	/	/
CC(C)c1ccc(/C=C/C(=O)NC(=S)Nc2ccc(CN3CCOCC3)cc2)cc1	-5	101	-1.6	i	0.77	/	/

As a short view, part of the list above.
SMILES	PKD1 inh	RGS16-Gao HTS	GALR2 agonist	HSV replic up	HSV replic up primary fold	Insulin prom inh	Insulin prom inh cell count
COc1ccccc1-n1c(SCC(=O)O)nc2sc3c(c2c1=O)CCC3	/	107	/	i	0.96	/	/
CC(C)c1ccc(/C=C/C(=O)NC(=S)Nc2ccc(CN3CCOCC3)cc2)cc1	-5	101	-1.6	i	0.77	/	/

(continued)
SMILES	PKD1 inh	RGS16-Gao HTS	GALR2 agonist	HSV replic up	HSV replic up primary fold	Insulin prom inh	Insulin prom inh cell count
Cc1oc(-c2ccccc2F)nc1CS(=O)(=O)CC(=O)NCCCc1ccccc1	-5	100	-1.2	i	0.83	/	/
COc1cccc(C2C(C(=O)NCc3ccccc3)=C(C)Nc3ncnn32)c1 (stereo not given)	-15	106	-2.1	i	0.84	16	115
COC(=O)c1cc2n(n1)CCN(Cc1cccc(OC)c1)C2=O	-1	105	/	i	0.97	-56	82
COc1ccc(S(=O)(=O)NC2CC(C)(C)NC(C)(C)C2)c(C)c1C	-7	104	-2.4	i	1	-3	134
COc1ccccc1N1CCN(CC(O)COc2ccc(S(=O)(=O)N3CCOCC3)cc2)CC1 (stereo not given)	6	77	-2.9	i	0.78	/	/
O=C(CCc1ccc(S(=O)(=O)NCCc2ccccc2)cc1)Nc1ccc2c(c1)OCO2	-7	98	-0.5	i	1.2	25	83
COc1ccc(CNC(=O)C(C)Sc2nc3ccccc3c(=O)n2CCCN2CCOCC2)cc1 (stereo not given)	-5	98	/	i	0.97	/	/
COc1ccc(OC)c(S(=O)(=O)N2CCC(C(=O)Nc3cccc(C)c3C)CC2)c1	-2	94	-1.3	i	0.85	/	/
S=C(NCC1CCCO1)Nc1ccc(Cl)cc1Cl (stereo not given)	-4	100	0.3	i	1	14	136
CCNC(=O)CC1C(=O)N(c2cccc(OC)c2)C(=O)N1CCOC (stereo not given)	-9	125	-2.4	i	0.96	50	51
CCN(CC)S(=O)(=O)c1cccc(N=Nc2c(O)c3ccccc3oc2=O)c1	/	101	/	i	1	/	/
O=c1c2c(ncn2C2CCCC2)n(Cc2ccccc2)c(=O)n1CCOc1ccc(Br)cc1	-8	100	-0.3	i	1.4	/	/
Cc1csc(SCC(=O)Nc2ccc(Cl)cn2)n1	-9	123	-1.6	i	1	11	85
O=C(Nc1ccc(Cl)cc1)ON=C1CCCC1	-8	114	-0.7	i	0.93	-52	39
COc1cc(OC)cc(C(=O)N2CCN(Cc3ccccc3Br)CC2)c1	-2	107	/	i	0.83	/	/
Cc1cc(C)cc(N2C(=O)CN(Cc3sccc3C)C2=S)c1	-17	102	-0.9	i	1	-20	131
CCC(C)/C(C)=N/NC(=O)CNS(=O)(=O)c1ccc([N+](=O)[O-])cc1 (stereo not given)	-2	98	/	i	1	/	/
COc1ccc(C(=O)OC/C(O)=C(\C#N)c2nc3ccccc3[nH]2)cc1S(=O)(=O)N1CCOCC1	0	97	0.0	i	1	8	130
COC(=O)C1=C(CSc2nccn2C)NC(=O)NC1c1cc(C)ccc1C (stereo not given)	1	97	-2.0	i	0.97	-47	141
CCCC1C2C(=O)N(c3cccc(C)c3)C(=O)C2ON1c1ccccc1 (stereo not given)	/	99	/	i	1	/	/
CSc1nccn1CC(=O)Nc1ccc(F)cc1	5	106	-2.4	i	0.92	-93	84
CC(O)C(=O)N/N=C/c1ccccc1C(=O)O (stereo not given)	-3	102	/	i	0.99	/	/
CCOC(=O)c1cc(-c2ccccc2)sc1NC(=O)C(C)Sc1nnc(N)s1 (stereo not given)	1	103	-0.6	i	0.75	/	/
COc1ccc(/C=C(/NC(=O)c2ccccc2Cl)C(=O)NCCCC(=O)O)cc1	-7	130	/	i	1	/	/
Cc1c(Br)ccc(NC(=O)c2ccccc2[N+](=O)[O-])c1C	-9	112	/	i	1	-48	125

An excerpt from above, limited to GALR2 agonist and HSV replic up primary fold.
smiles | GALR2 agonist | HSV replic up primary fold
COc1cccc(C2C(C(=O)NCc3ccccc3)=C(C)Nc3ncnn32)c1 (stereo not given) | -2.1 | 0.84
COC(=O)C1=C(CSc2nccn2C)NC(=O)NC1c1cc(C)ccc1C (stereo not given) | -2.0 | 0.97
CCCC1C2C(=O)N(c3cccc(C)c3)C(=O)C2ON1c1ccccc1 (stereo not given) | / | 1
COc1ccc(/C=C(/NC(=O)c2ccccc2Cl)C(=O)NCCCC(=O)O)cc1 | / | 1
Cc1c(Br)ccc(NC(=O)c2ccccc2[N+](=O)[O-])c1C | / | 1

Other structures follow:
SMILES	PKD1 inh	RGS16-Gao HTS	GALR2 agonist	HSV replic up	HSV replic up primary fold	Insulin prom inh	Insulin prom inh cell count
O=C(Cn1cc2c(n1)CCCCC2)Nc1ccccc1Cl	/	102	/	i	0.95	/	/
COc1ccc(C(=O)C2CCCN(Cc3ccc4c(c3)OCCO4)C2)cc1F (stereo not given)	/	82	/	i	0.89	/	/
CCP(=O)(c1ccccc1)C(C)(C)O (stereo not given)	-3	101	1.9	i	0.95	-7	111
Cc1ccc(-c2ccc(/C=C3\SC(N4CCOCC4)=NC3=O)o2)cc1	-5	96	/	i	0.67	-78	152
CC(=O)N(C)C1=C(N2CCOCC2)C(=O)c2ccccc2C1=O	-11	100	-1.1	i	0.56	/	/
CC(C)CC1NC(=O)N(Cc2nc3ccccc3s2)C1=O (stereo not given)	/	98	/	i	0.79	/	/
O=C(CN1c2ccccc2Sc2ccccc21)N/N=C/c1ccc(Cl)cc1	/	98	/	i	0.92	/	/
COc1ccc(/C(C)=N/OCC(=O)N=Nc2c(O)[nH]c3ccc(Br)cc23)cc1	3	106	-0.2	i	0.89	33	92
COc1cc2[nH]c(-c3cccc(F)c3)cc(=O)c2cc1OC	-1	91	-0.9	i	0.69	-57	127
CCOc1ccc(S(=O)(=O)N/N=C2/CC(c3ccccc3)Oc3ccccc32)cc1 (stereo not given)	4	104	-1.5	i	0.87	29	101
COc1ccccc1-n1c(CCn2nc(C)c(Br)c2C)n[nH]c1=S	2	89	-0.4	i	1	-25	94
CCCc1nnc(NC(=O)c2ccc(N3C(=O)C4C5C=CC(C5)C4C3=O)cc2)s1 (stereo not given)	1	165	-1.7	i	0.79	-29	57
CCOC1OC(=O)C(Cl)=C1Nc1ccc(C)cc1 (stereo not given)	-2	98	/	i	0.94	6	199
CCN(CC)c1c([N+](=O)[O-])c(=O)n(CC)c2ccccc12	/	86	/	i	1.1	/	/
Oc1cccc(NC(=S)Nc2ccccc2)c1	/	94	/	i	0.91	/	/
O=C(NNC(=O)C1CCN(c2ncccn2)CC1)c1ccc(Cl)cc1	9	66	/	i	1.1	/	/
COC(=O)C1(Cc2ccccc2)NC(c2ccccc2C)C2C(=O)N(c3ccc4c(c3)OCO4)C(=O)C21 (stereo not given)	1	100	-1.4	i	1.1	46	83
O=C(O)C1CN(c2ncccc2[N+](=O)[O-])C1	1	97	/	i	1.3	33	117
CCc1ccc(NC(=O)N(CCCN2CCOCC2)Cc2cccs2)cc1	-4	112	-0.5	/	/	/	/
Cc1c(C(=O)Nc2cccc(Cl)c2)cn2c(nc3ccccc32)c1C#N	-6	107	-0.7	i	1.1	-10	58
Cc1cccc2sc(NC(=O)CCNS(=O)(=O)c3cccc4nonc34)nc12	7	103	-0.8	i	0.72	-34	86
CN1CCN(NC(=O)c2ccc(F)cc2)CC1	3	109	-2.3	/	/	/	/
Oc1ccccc1C1=Nc2ncnn2C(c2ccc(F)cc2)C1 (stereo not given)	/	133	/	i	0.8	/	/
O=c1c(-c2ccccc2)c(O)cc(-c2ccncc2)n1-c1ccc(Cl)cc1	2	100	/	i	1.1	-28	139
COCCN(Cc1cc2c(C)cc(C)cc2nc1Cl)C(=O)c1ccccc1F	-6	109	/	i	0.9	-209	51
Carrying on.
SMILES	PKD1 inh	RGS16-Gao HTS	GALR2 agonist	HSV replic up	HSV replic up primary fold	Insulin prom inh	Insulin prom inh cell count
CC1SC(c2cccc(Cl)c2)NC1=O (stereo not given)	-2	102	-0.8	i	0.88	-7	135
CN(CCc1ccccn1)C(=O)CCC1CCCN(C(=O)CN2CCCCCC2)C1 (stereo not given)	-3	105	/	i	0.89	/	/
Cc1nnc(SCC(=O)c2ccc([N+](=O)[O-])cc2)s1	-2	102	/	i	1.1	/	/
Cc1ccc(S(=O)(=O)NCC2CCC(C(=O)NCc3ccccn3)CC2)cc1 (stereo not given)	-5	103	/	i	1	24	61
O=C(OCCCN=C1NS(=O)(=O)c2ccccc21)c1ccccc1F	-8	102	-1.9	i	0.81	49	80
Cc1cc2cccc(C)c2nc1SCC(=O)NCC1CCCO1 (stereo not given)	5	102	/	i	1.1	-29	128

Among those listed so far, these have bromine.
SMILES	PKD1 inh	RGS16-Gao HTS	GALR2 agonist	HSV replic up	HSV replic up primary fold	Insulin prom inh	Insulin prom inh cell count
O=c1c2c(ncn2C2CCCC2)n(Cc2ccccc2)c(=O)n1CCOc1ccc(Br)cc1	-8	100	-0.3	i	1.4	/	/
COc1cc(OC)cc(C(=O)N2CCN(Cc3ccccc3Br)CC2)c1	-2	107	/	i	0.83	/	/
Cc1c(Br)ccc(NC(=O)c2ccccc2[N+](=O)[O-])c1C	-9	112	/	i	1	-48	125
COc1ccc(/C(C)=N/OCC(=O)N=Nc2c(O)[nH]c3ccc(Br)cc23)cc1	3	106	-0.2	i	0.89	33	92
COc1ccccc1-n1c(CCn2nc(C)c(Br)c2C)n[nH]c1=S	2	89	-0.4	i	1	-25	94

High-throughput results from PubChem.
